HNF4A DNA FP: change in binding of human HNF4 alpha to DNA. HNF4a-FITC DNA binding, fluorescence polarization, 1 h. activity change, % at 10 µM. 360,000 compounds, 0.3% hits; in the data active means activity change above about 30%, passing the limit was not always enough;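 further: controls were the assay level and a saturating level of protein; the project sought stronger binding though the title names inhibitors; some compounds called inactive have numbers as strong as hits; positive values seem to mean higher polarization but the record does not say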
Target sequence (P41235 whole entry, looked up): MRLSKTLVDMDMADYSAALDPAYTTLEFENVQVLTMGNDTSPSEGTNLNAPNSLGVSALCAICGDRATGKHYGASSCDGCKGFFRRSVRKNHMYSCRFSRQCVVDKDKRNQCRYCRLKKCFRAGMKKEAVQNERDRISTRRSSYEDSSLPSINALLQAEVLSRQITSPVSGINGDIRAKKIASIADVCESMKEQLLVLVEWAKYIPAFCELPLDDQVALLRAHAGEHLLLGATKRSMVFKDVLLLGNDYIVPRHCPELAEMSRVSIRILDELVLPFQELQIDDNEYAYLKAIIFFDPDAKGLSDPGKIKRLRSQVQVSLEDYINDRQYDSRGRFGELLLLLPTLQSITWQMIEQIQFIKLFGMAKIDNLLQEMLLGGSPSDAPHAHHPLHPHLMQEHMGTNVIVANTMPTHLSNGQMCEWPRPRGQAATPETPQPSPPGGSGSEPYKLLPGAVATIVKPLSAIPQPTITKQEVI
Beta2AR agonist: human beta-2 adrenergic receptor agonism by FAP; Am2.2-beta2AR cells, FAP receptor internalization, flow cytometry; reference of the scale not given here; 340,000 compounds, 0.43% hits; P07550; AID 504454; response, % (no concentration beside the values);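 active means response above a set limit, near 3 SD of response in nonfluorescent compounds, cut at about 42% in these data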;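 further: stock transfer was 100 nL into about 11 µL; a reference agonist was the positive control; negative values mostly stem from fluorescent compounds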
Target sequence (P07550 whole entry, looked up): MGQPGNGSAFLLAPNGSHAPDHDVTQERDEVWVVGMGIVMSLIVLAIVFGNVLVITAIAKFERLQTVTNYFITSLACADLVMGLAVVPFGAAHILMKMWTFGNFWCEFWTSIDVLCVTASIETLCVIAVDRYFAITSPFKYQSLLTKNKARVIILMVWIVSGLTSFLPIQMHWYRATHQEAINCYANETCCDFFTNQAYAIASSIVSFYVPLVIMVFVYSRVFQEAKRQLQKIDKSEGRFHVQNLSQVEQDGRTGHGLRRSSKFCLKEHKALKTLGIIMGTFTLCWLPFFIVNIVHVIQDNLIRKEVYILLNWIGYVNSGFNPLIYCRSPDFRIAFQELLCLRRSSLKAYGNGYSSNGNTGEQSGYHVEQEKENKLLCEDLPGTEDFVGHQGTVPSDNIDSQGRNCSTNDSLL
UCH37 inh: inhibitors of human deubiquitinating enzyme UCH37 | purified proteasome/UCH37, Ub-AMC cleavage fluorescence | inhibition, % (no concentration beside the values) | 330,000 compounds, 0.33% hits | AID 588478;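 active means mean of two replicates above 20%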;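 further: 0% = compound-free wells with enzyme and 100% = wells lacking proteasome; stock transfer was 100 nL into about 20 µL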
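Assay system: Proteasome-bound UCH37. Buffer or medium: pH 7.4 Tris-HCl (50 mM) with ovalbumin, ATP-MgCl2, DTT. Incubation: 30 min preincubation with enzyme, 25 min cleavage at room temperature. Measured by: fluorescence, ex 355 nm, em 460 nm. Read-out basis: percent inhibition. Control set: wells without proteasome as full block, compound-free enzyme plus substrate as uninhibited.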
ALR inh: blocks human ALR sulfhydryl oxidase activity; inhibition, % (no concentration beside the values); 290,000 compounds, 3.8% hits; AID 485317; purified ALR, DTT oxidation, H2O2 HRP-luminol luminescence; P55789;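 active means mean and each replicate at 75% or more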;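 further: stock transfer was 7.5 nL into about 7.5 µL; 0% = neutral wells and 100% = wells with inactivated enzyme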
Ecoli rRNA inh: inhibits bacterial ribosomal RNA function over humanized ribosomes; E. coli WT GFP vs humanized-ribosome RFP mutants, fluorescence, 24 h; hits give low values; DMSO median 0, no signal -100; 350,000 compounds, 1.6% hits; GFP signal change (wild-type ribosome), % (concentration not given with the values); AID 720706;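 active means significant combined selectivity score with lowered wild-type GFP, culture density cut under 30%, mutant RFP and density less affected; inactive means any of these conditions unmet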; further: one replicate is shown; some compounds called inactive have numbers as strong as hits
FGF22 binding: FGF22 (human) thermal shift binding | Q9HCT0 | recombinant FGF22 thermal shift, SYPRO orange fluorescence; percent of sucrose octasulfate shift, DMSO zero | calls only at 9.99 µM | 340,000 compounds, 1.5% hits;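 active means melting point raised past a set limit in the mean and every replicate; three in four hits are not shown here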
Target sequence (Q9HCT0 whole entry, looked up): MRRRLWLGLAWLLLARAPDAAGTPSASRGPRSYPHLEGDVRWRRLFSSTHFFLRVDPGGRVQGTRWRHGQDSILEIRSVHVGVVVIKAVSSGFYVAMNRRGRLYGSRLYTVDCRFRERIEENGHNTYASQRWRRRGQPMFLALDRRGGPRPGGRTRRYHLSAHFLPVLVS
Ecoli growth: inhibitors of Escherichia coli growth. OD600, 23 h; hits give low values. OD600 absorbance (concentration not given with the values). 330,000 compounds, 0.21% hits. AID 1053175;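 active means OD600 absorbance below the run mean of sample wells minus 3.6 SD, in any replicate, cut at about 0.56 in these data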;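 further: stock transfer was 300 nL into about 60 µL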
Ecoli rRNA inh OD600: further read-out of Ecoli rRNA inh, marked with its call; OD600 change, %; measured here: OD600 growth;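 optical density of the mix in the first replicate; 0 = DMSO median and -100 = no signal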
Ecoli rRNA inh RFP: second read-out of Ecoli rRNA inh, no call of its own (marks repeat the call); RFP signal change, %; measured here: RFP humanized mutant strains;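 first replicate; 0 = DMSO median and -100 = no signal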
Numbers without * were called inactive; i = inactive; . = no result given; & = joins results of further samples. The list is partial; the hit share may differ from the screen's.

1. CSc1sc(C)cc1C1C(C#N)=C(N)N(c2cccnc2)C2=C1C(=O)CCC2 (stereo unspecified)
2. COc1ccc(C(=O)Nc2cccc(C(=O)N3CCCCC3)c2)cc1
3. CCc1ccc(C(O)c2ncc(-c3cccc(C)c3)[nH]2)cc1 (stereo unspecified)
4. C=CCNc1ncnc2sc(SC)nc12
5. CCCCNC(=S)N(CCN(CC)CC)Cc1cc2cc3c(cc2[nH]c1=O)OCO3
6. C/C(=N\NC(=O)c1ccc(NS(=O)(=O)c2cccs2)cc1)c1ccncc1
assay / compound	1	2	3	4	5	6
Ecoli rRNA inh OD600	.	2	-81	13	12	2
Ecoli growth	0.62	0.71	.	0.67	0.65	.
FGF22 binding	.	i	i	i	i	i
Beta2AR agonist	13	-9	.	0	2	5
HNF4A DNA FP	-3.9	-1.3	1.1	3.6	0.8	2.1
ALR inh	31	-5	.	-3	.	25
Ecoli rRNA inh	.	1	-61	7	10	6
Ecoli rRNA inh RFP	.	0.0	-17	-0.8	3.0	-0.8
UCH37 inh	4.9	6.4	.	3.7	-142	.

7. COc1ccc(NC(=O)CN2CCN(CC(=O)Nc3ccc(OC)cc3)CC2)cc1
8. CCOC(=O)N1CCN(C(=O)C[C@@H]2C[C@@]3(C(=O)OC)CCCCC=C3N(CCC3=CCCCC3)C2=O)CC1
9. CCOC(=O)N1CCN(Cc2cc(=O)oc3ccc(Cl)cc23)CC1
10. O=C(NN=C(c1ccccc1)c1ccccc1)C(CCl)C1CCCCC1 (stereo unspecified)
11. CCN(Cc1ccccc1)C(=O)CN1C(=O)COc2ccc(S(=O)(=O)NC3CCCC3)cc21
12. Cc1c(C#N)c(N=CN(C)C)c(C(=O)c2ccccc2)n1-c1ccccc1
assay / compound	7	8	9	10	11	12
Ecoli rRNA inh OD600	11	-34	.	-4	-7	.
Ecoli growth	0.66	.	0.69	0.63	0.66	0.75
FGF22 binding	i	i	.	i	i	.
Beta2AR agonist	-2	.	-4	-11	1	-19
HNF4A DNA FP	0.9	-4.9	13	2.6	1.2	-0.9
ALR inh	-4	.	-5	15	0	-2
Ecoli rRNA inh	11	-11	.	9	0	.
Ecoli rRNA inh RFP	-0.1	0.9	.	-0.1	0.0	.
UCH37 inh	-1.0	.	3.3	0.9	7.1	4.4

13. CCN(CC(=O)NCc1cccs1)C(=O)CCc1c[nH]c2ccccc12
14. O=C(Nc1ccc(NC(=O)c2ccccc2Cl)nc1)c1ccncc1
15. COc1c(OC(C)=O)ccc(/C=C/c2ccc3ccccc3n2)c1[N+](=O)[O-]
16. Cc1nn(S(=O)(=O)c2ccccc2)c(C)c1S(=O)(=O)N1CCC(C)CC1
17. Cc1cc(C(=O)NNC(=S)NCC(C)C)no1
18. CC1CCCCN1CCCNC(=O)c1ccc(NC(=O)C2=CSCCO2)cc1 (stereo unspecified)
assay / compound	13	14	15	16	17	18
Ecoli rRNA inh OD600	-9	1	-32*	6	.	5
Ecoli growth	0.68	0.68	0.67	0.71	0.7	0.71
FGF22 binding	i	i	i	i	.	i
Beta2AR agonist	-2	0	-1	-3	16	28
HNF4A DNA FP	2.6	3.5	3.6	2.1	2.1	-2.4
ALR inh	26	-3	18	-2	2	-2
Ecoli rRNA inh	-7	2	-43*	4	.	14
Ecoli rRNA inh RFP	-1.9	-1.6	9.5*	-1.9	.	2.9
UCH37 inh	0.7	3.8	8.1	1.4	3.4	6.6

19. C1CSC2(N1)C1CC3CC2CC(C1)C31NCCS1 (stereo unspecified)
20. COc1ccc(C)cc1NC(=O)C/C(C)=N/NC(=O)Cc1cccc2ccccc12
21. Cc1ccc(Nc2cc(C)nc(-c3ccccc3O)n2)cc1
22. CCCNC(=O)c1ccc2c(=O)n3c(-c4ccc(C)cc4)csc3nc2c1
23. CSc1cc(C)c(OCC(=O)Nc2ccc(NC(C)=O)cc2)c(C)c1
24. O=C(C1=NN[C@@H]2C(=O)N(Cc3ccccc3)C(=O)[C@H]12)c1ccc([N+](=O)[O-])cc1
assay / compound	19	20	21	22	23	24
Ecoli rRNA inh OD600	-3	4	.	10	-4	-4
Ecoli growth	0.72	.	0.73	0.65	0.67	0.69
FGF22 binding	.	i	.	i	i	i
Beta2AR agonist	-2	4	2	-11	5	-8
HNF4A DNA FP	0.6	1.0	14	0.0	-2.6	-2.9
ALR inh	.	4	1	22	-13	.
Ecoli rRNA inh	5	2	.	2	-8	-6
Ecoli rRNA inh RFP	-0.2	0.5	.	1.3	-6.5	-1.1
UCH37 inh	-1.2	.	-25	-29	1.8	6.2

25. c1ccc(OCCCn2ccnc2)cc1
26. C[C@@H]1CN([C@@H](C)CO)C(=O)CCCn2cc(nn2)CO[C@H]1CN(C)S(=O)(=O)c1ccc2ccccc2c1
27. COCC(C)NC(=O)c1ccc(Cl)c(Cl)c1 (stereo unspecified)
28. Cc1ccccc1NC(=O)c1cc[n+]([O-])cc1
29. Cc1ccc(C(=O)O)cc1NS(=O)(=O)c1ccc2ccccc2c1
30. O=C(NCCS(=O)(=O)N1CCCCCC1)c1ccccc1
assay / compound	25	26	27	28	29	30
Ecoli rRNA inh OD600	2	-10&-7	.	7	-8	8
Ecoli growth	0.67	.	0.73	0.64	0.67	0.7
FGF22 binding	i	i	.	i	i	i
Beta2AR agonist	6	.	4	9	20	1
HNF4A DNA FP	3.4	-1.1	1.9	-3.2	-2.8	4.3
ALR inh	-1	.	-6	.	4	18
Ecoli rRNA inh	8	-3&-3	.	-3	-4	4
Ecoli rRNA inh RFP	-0.5	1.3&0.9	.	-0.4	-1.0	1.8
UCH37 inh	2.3	.	2.8	0.7	1.6	1.0

31. Cc1nc2sc(C(c3ccco3)N3CCC4(CC3)OCCO4)c(O)n2n1 (stereo unspecified)
32. COC(=O)C1CCN(CC(=O)Nc2sc3c(c2C#N)CCC3)CC1
33. COC(=O)COc1c(/C=C\c2nc(O)c([N+](=O)[O-])c(=O)[nH]2)cccc1OC
34. COc1ccccc1NC(=O)N(C)C[C@H]1OCc2cnnn2CCCC(=O)N([C@@H](C)CO)C[C@H]1C
35. O=C(OCCOc1ccc(Br)cc1)c1ccc(Cl)nc1
36. COc1ccc(NC(=O)CC2Nc3cc(C)c(C)cc3NC2=O)c([N+](=O)[O-])c1 (stereo unspecified)
assay / compound	31	32	33	34	35	36
Ecoli rRNA inh OD600	.	.	2	16&8	-38	13
Ecoli growth	0.71	0.73	0.7	.	0.66	.
FGF22 binding	.	.	i	i	i	i
Beta2AR agonist	3	-2	4	.	2	7
HNF4A DNA FP	-5.6	1.0	-2.5	-0.3	-0.2	-4.7
ALR inh	-1	.	54	.	-1	-6
Ecoli rRNA inh	.	.	6	3&0	-25	6
Ecoli rRNA inh RFP	.	.	7.3	-2.4&0.6	27	0.1
UCH37 inh	2.7	1.1	14	.	-0.8	.

37. O=C(NNC(=O)c1ccccc1O)c1ccc(Cl)c(S(=O)(=O)N2CCc3ccccc32)c1
38. CSc1ccc(CNc2ncc(-c3cccc([N+](=O)[O-])c3)n2C)cc1
39. COc1ccc(S(=O)(=O)NCCSC(C)(C)C)c(Cl)c1Cl
40. Cc1ccc(C)c(C(=O)CN2C(=O)c3ccccc3C2=O)c1
41. COc1cccc(/C=C2/NC(=O)N(CC(=O)Nc3ccc(C)cc3)C2=O)c1OCc1cccc(C(=O)O)c1
42. CC(=O)c1ccc(NC(=O)CSc2nc(Nc3ccccc3)nc(N3CCOCC3)n2)cc1
assay / compound	37	38	39	40	41	42
Ecoli rRNA inh OD600	-67	-11	.	7	6	11
Ecoli growth	0.67	0.66	0.73	0.65	0.7	0.7
FGF22 binding	i	i	.	i	i	i
Beta2AR agonist	-1	7	-18	-3	5	2
HNF4A DNA FP	-1.7	0.4	1.3	-0.8	-6.1	0.2
ALR inh	24	98*	-3	-2	.	-1
Ecoli rRNA inh	-44	-12	.	1	12	5
Ecoli rRNA inh RFP	-5.6	-1.2	.	-1.1	-0.1	0.5
UCH37 inh	2.1	7.7	4.3	2.3	-219	6.0

43. Cc1cccc(N2CCN(C(=O)CCC(=O)N3CCOc4ccc(Cl)cc43)CC2C)c1 (stereo unspecified)
44. O=C(CCN1CCOCC1)Nc1ccc(F)cc1
45. COc1c2c(cc3oc(CO[C@@H]4O[C@H](CO)[C@@H](O)[C@H](O)[C@H]4O)cc(=O)c13)O[C@H](C(C)(C)O)C2
46. CC(C)c1ccc(/C=C/c2[nH]c(=O)[nH]c(=O)c2[N+](=O)[O-])cc1
47. C=CCc1ccc(OCC(O)CN2CCN(c3ccccc3)CC2)c(OC)c1 (stereo unspecified)
48. COC(=O)CC1C(=O)NCCN1C(=O)Nc1ccc(Cl)cc1 (stereo unspecified)
assay / compound	43	44	45	46	47	48
Ecoli rRNA inh OD600	-64	11	7	-6	-16	.
Ecoli growth	0.79	.	.	0.69	0.67	0.69
FGF22 binding	i	i	i	i	i	.
Beta2AR agonist	-5	8	16	10	-4	1
HNF4A DNA FP	-0.2	2.1	0.5	-1.1	-0.3	-0.1
ALR inh	40	3	0	60	37	-3
Ecoli rRNA inh	-7	5	11	-6	-9	.
Ecoli rRNA inh RFP	-0.3	0.9	-6.1	-3.5	0.3	.
UCH37 inh	2.5	.	-2.0	8.9	2.8	-0.4

49. CCOC(=O)C1CCCN(C(=O)COC(=O)c2cccs2)C1 (stereo unspecified)
50. COc1ccc(-n2c(C)nc3cc(C(=O)NCc4ccco4)ccc32)cc1
51. COc1ccc(NC(=O)c2ccc3c(c2)NC(=O)CO3)cc1OC
52. O=C(COC(=O)COc1ccc2ccccc2c1)NCC(F)(F)F
53. O=C(CNC(=O)c1cccc(F)c1)OCC(=O)N1CCCCC1
54. Cc1ccc2nc(SCCC(=O)O)cc(C)c2c1
55. CCN(CC)C(=O)c1[nH]cnc1C(=O)NCC(=O)OCc1ccccc1
assay / compound	49	50	51	52	53	54	55
Ecoli rRNA inh OD600	2	.	5	-4	.	.	5
Ecoli growth	0.68	0.8	0.69	0.67	0.7	0.67	0.71
FGF22 binding	i	.	i	i	.	.	i
Beta2AR agonist	-35	11	-4	-2	1	8	3
HNF4A DNA FP	-2.4	-0.8	1.4	1.3	0.5	2.1	2.5
ALR inh	-2	67	25	-9	.	59	.
Ecoli rRNA inh	7	.	-3	-5	.	.	-2
Ecoli rRNA inh RFP	0.3	.	-4.6	-3.0	.	.	2.5
UCH37 inh	-0.1	2.3	3.3	0.0	4.8	0.0	0.5

An excerpt of these results, bar-delimited.
# | smiles | Ecoli rRNA inh OD600 | Ecoli growth | FGF22 binding | Beta2AR agonist | HNF4A DNA FP | ALR inh | Ecoli rRNA inh | Ecoli rRNA inh RFP | UCH37 inh
54 | Cc1ccc2nc(SCCC(=O)O)cc(C)c2c1 | . | 0.67 | . | 8 | 2.1 | 59 | . | . | 0.0
55 | CCN(CC)C(=O)c1[nH]cnc1C(=O)NCC(=O)OCc1ccccc1 | 5 | 0.71 | i | 3 | 2.5 | . | -2 | 2.5 | 0.5

Results in Ecoli growth, for some of the entries so far:
item	compound	Ecoli growth
53	O=C(CNC(=O)c1cccc(F)c1)OCC(=O)N1CCCCC1	0.7
54	Cc1ccc2nc(SCCC(=O)O)cc(C)c2c1	0.67
55	CCN(CC)C(=O)c1[nH]cnc1C(=O)NCC(=O)OCc1ccccc1	0.71
